# Screening data from PubChem BioAssay.
# TsaE inh: inhibitors of E. coli YjeE (TsaE). AID 605. purified YjeE, fluorescence polarisation of a bound ADP probe. Potency, µM. 0.05% of 71,000 active; active = well fitted falling curve; inconclusive = weaker or top-dose-only fall, or a rising curve; inactive = flat or poorly fitted curve;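 note: top concentration of the series not given in the record; excess ADP was the control for the full effect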
#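 Purified YjeE (10 uM) with BODIPY Texas Red-labeled ADP probe (2 uM); compounds pin-transferred, 15 min at room temperature. Binding inhibition read as decreased fluorescence polarization; ADP titration as control.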
# Bst PK mod: modulators of Bacillus stearothermophilus pyruvate kinase. 1.2% of 51,000 active. Potency, µM. partly purified Bacillus stearothermophilus pyruvate kinase, luminescence ATP production; ribose 5-phosphate activator present at AC10; in the data active means potency below about 11 µM; inconclusive means mostly about 12 µM to 25 µM; inactive means weaker than that;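 the screen sought inhibitors and activators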;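 note: potency is the fitted concentration of half-maximal effect; scaled between full activation by ribose 5 phosphate and full inhibition by luteolin; about four in five hits inhibit and the cells do not say which; series up to 57 µM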
# * marks the source's active call; other numbers are inactive results; i = inactive; ? = inconclusive; nt = no result given.
Bst PK mod	TsaE inh	mol
nt	i	O=C(O)c1ccccc1C(=O)NCC(O)COCC1CC=CCC1 (stereo not drawn)
>57	i	O=C1CCCc2nc3nc4ccccc4n3cc21
>57	i	CCOc1cc(C2C(C(=O)c3ccccc3)=C(C(=O)OC)Nc3nnnn32)ccc1O (stereo not drawn)
>11.4	nt	CCCCC[C@H](O)/C=C/[C@H]1C=CC(=O)[C@@H]1C/C=C\CCCC(=O)O
nt	i	Nc1nc(SCC(=O)OCc2ccccc2)[nH]c(=O)c1NC(=O)c1ccco1
i	i	N#Cc1nc(-c2ccco2)oc1N1CCc2ccccc2C1
nt	i	COc1ccc(C)cc1S(=O)(=O)NC1CCCCC1
>57	i	N#Cc1ccc(CSc2nnc(-c3cccs3)n2-c2ccccc2)cc1
>57	i	CCOC(=O)CSc1nc2ccccc2c(=O)n1CC1CCC(C(=O)NCc2ccco2)CC1 (stereo not drawn)
>57	i	COc1ccc(N/C(=N\c2nc(C)cc(C)n2)NC(C)=O)cc1OC
>57	i	Cc1ccc(-n2c(N)c(C(=O)N3CCOCC3)sc2=S)cc1
>57	i	COc1ccccc1N(CCC#N)C(=O)CSc1nc(-c2ccccc2)cn1N
>57	i	CCCOc1cc(CC(=O)NCc2ccco2)ccc1OC
nt	i	C(=N/Nc1nnc2c(n1)[nH]c1ccccc12)/c1cccnc1
>57	i	COC(=O)c1ccc(COC(=O)c2[nH]c(C)c(C(C)=O)c2C)o1
>57	i	CCOc1ccc2oc(C(=O)OCC(=O)NC(=O)NC3CCCC3)c(C)c2c1
nt	i	O=C(O)COc1ccccc1O
>57	i	Cn1c(=O)c2sccc2n2c(CCCC(=O)NCc3ccc4c(c3)OCO4)nnc12
>57	i	COc1ccc(Br)cc1CNC(=O)C1CCCN(c2nc3ccccc3o2)C1 (stereo not drawn)
nt	i	COc1ccc(-c2nc(CS(=O)CC(=O)NCC3CCCO3)c(C)o2)cc1 (stereo not drawn)
>57	i	O=C(Nc1cccc(F)c1)c1cc(S(=O)(=O)N2CCC(C(=O)O)CC2)ccc1F
>57	i	c1ccc(-c2nnc(-c3cccc(-c4nnc(-c5ccccc5)o4)c3)o2)cc1
>57	i	Cc1ccc(Cn2c(CN3CCOCC3)nc3c2c(=O)[nH]c(=O)n3C)cc1
>57	i	COc1cccc(OCCCCN2CCCCC2)c1
>57	i	CCn1c(SCCC#N)nnc1-c1ccncc1
nt	i	O=C(CSc1nnc(-c2ccco2)n1-c1ccccc1)NCCc1ccccc1
>57	i	COc1ccc(N2C(N)=C(C#N)C(c3cccnc3)C3=C2CC(C)(C)CC3=O)cc1 (stereo not drawn)
>57	i	CCN(CC)c1nc(N)c2c(N)nc3c(c2c1C#N)CC(c1ccccc1)O3 (stereo not drawn)
>57	i	CCCn1c(=N)n(CCOc2ccc(OC)cc2)c2ccccc21
>57	i	O=S(=O)(O)c1nc2ccccc2n1CCOc1ccccc1
>57	i	Cc1cc(NS(=O)(=O)c2ccc(NC(=O)CCN3C(=O)c4ccccc4C3=O)cc2)no1
>57	i	COC(=O)c1ccc(C(=O)OC)c(NC(=O)CCc2ccc(C)o2)c1

# Some of the entries above, set out differently.
# Below each compound: Bst PK mod | TsaE inh
- O=S(=O)(O)c1nc2ccccc2n1CCOc1ccccc1
 : >57 | i
- Cc1cc(NS(=O)(=O)c2ccc(NC(=O)CCN3C(=O)c4ccccc4C3=O)cc2)no1
 : >57 | i

# More structures:
Bst PK mod	TsaE inh	mol
>57	i	COc1cc2c(cc1OC)-c1cc(OCCN3CCOCC3)nc(=O)n1CC2
nt	i	CCC(C)=O
>57	i	CC(=O)Cc1nsc(NC(=O)c2csc3c2CCCC3)n1
nt	i	Cc1cc(C)nc(NC(=O)NS(=O)(=O)N2CCCCCC2)n1
nt	i	CCOCC(O)CS(=O)(=O)c1ccccn1 (stereo not drawn)
nt	i	O=C(c1ccco1)N1CCn2c1nc1ccccc12
nt	i	COC(=O)CCC(=O)OC
nt	i	O=C(Nc1ccc(Cl)cc1)Nc1ccccc1C(=O)NCc1ccco1
nt	i	CN(CC(=O)Nc1ccc(Cl)cc1)S(=O)(=O)c1cccc2cccnc12
>57	i	C=CCn1c(N)c(C(=O)N2CCOCC2)sc1=S
>25.6	nt	COc1ccc(CCCNC(=O)CC#N)cc1OC
nt	i	COc1cccc(-c2cc(NCc3cccc(C)c3)ncn2)c1
>57	i	COc1ccc(OC)c(NC(=O)Cn2c(=O)oc3ccccc32)c1
nt	i	COc1ccc2cc(C(c3nnnn3C3CCCC3)N3CCc4ccccc4C3)c(=O)[nH]c2c1 (stereo not drawn)
nt	i	COC(=O)c1ccc(C2C(C(=O)Nc3ccc(C)cc3C)=C(C)Nc3ncnn32)cc1 (stereo not drawn)
>25.6	nt	C/C(=C\C(=O)O)CC(=O)O

# A draw from above in order of length of the SMILES, high to low.
Bst PK mod	TsaE inh	mol
nt	i	COc1ccc2cc(C(c3nnnn3C3CCCC3)N3CCc4ccccc4C3)c(=O)[nH]c2c1 (stereo not drawn)
nt	i	COc1cccc(-c2cc(NCc3cccc(C)c3)ncn2)c1
>25.6	nt	COc1ccc(CCCNC(=O)CC#N)cc1OC

# Further compounds follow:
Bst PK mod	TsaE inh	mol
nt	i	CC(=O)N1CCC2(CC1)CN(c1ccccc1)C2
nt	i	COc1c(Br)cc(Br)cc1C(=O)O
nt	i	Cc1noc(NC(=O)Nc2ccccc2F)c1C#N
>57	i	O=C(CSc1nc2c(c(=O)n1-c1ccc(Cl)cc1)SCC2)N1CCCC1
>57	i	COc1ccc(CCNC(=O)c2cc(-c3ccccc3OC)on2)cc1OC
>57	i	COCCNC(=O)C(c1ccc(F)cc1)N(CCOC)C(=O)CCC(=O)Nc1nccs1 (stereo not drawn)
>57	i	CCOc1ccc(NC(=O)NC2CCOC(C)(C)C2)cc1 (stereo not drawn)
nt	i	CC(C)Sc1nc(O)c(Cc2ccccc2)c(=O)[nH]1
nt	i	COc1ccc(C2(CNC(C)=O)CCOCC2)cc1OC
>57	i	Cc1cc(NC(=O)c2cccc(C(=O)Nc3cc(C)on3)n2)no1
>57	i	Cc1ccc(NC(C(N)=O)c2c(C)[nH]c(=O)[nH]c2=O)cc1 (stereo not drawn)
>57	i	Cc1ccc(NC(=O)CS(=O)CC(=O)Nc2ccc(N3CCOCC3)cc2)cc1Cl (stereo not drawn)
>57	i	COc1ccc(C(=O)n2nc(-c3ccco3)nc2SC)cc1OC
nt	i	c1ccc(COCc2ccccc2)cc1
nt	i	C[C@@H]1Cc2ccccc2N1NC(=O)c1ccc(Cl)c(S(N)=O)c1 (stereo partly drawn)
>57	i	CCCCCCOC(=O)C(C#N)c1nc2ccccc2nc1N1CCOCC1 (stereo not drawn)

# Full records, quoted from the list. Values in the order: Bst PK mod	TsaE inh
# Record of Cc1cc(NC(=O)c2cccc(C(=O)Nc3cc(C)on3)n2)no1 = >57	i
# Record of C[C@@H]1Cc2ccccc2N1NC(=O)c1ccc(Cl)c(S(N)=O)c1 (stereo partly drawn) = nt	i

# Next section:
Bst PK mod	TsaE inh	mol
>57	i	COc1ccc(O)c(C(=O)c2cnc3onc(C(C)C)c3c2)c1
>57	i	COc1ccc(N2CCN(Cc3cc(=O)oc4cc5c(cc34)CCCC5)CC2)cc1
>57	i	C=CCNc1nc(NCc2ccco2)nc(OCC)n1
>57	i	Cc1cc(C)c(C#N)c(Nc2ccccc2Cl)n1
nt	i	O=C(Oc1ccccc1)N1CCC[C@@]2(CCN(c3ccccc3)C2)C1
>57	i	CCOC(=O)C1CCCN(C(=O)Cc2ccc(OC)c(OC)c2)C1 (stereo not drawn)
>57	i	COc1cccc(CNC(=O)c2cc3oc4ccccc4c3n2C)c1OC
>57	i	CCOC(=O)c1c(NC(=O)c2cccs2)sc2c1CC(C)(C)OC2
>57	i	Cc1cccc2nc(Cn3c(=O)n(CCCC(=O)NCc4ccco4)c(=O)c4ccccc43)cc(=O)n12
>57	?	O=C(OCn1nnc2ccccc2c1=O)c1cn(-c2ccccc2)nc1-c1cccnc1
nt	i	O=C(/C=C\C=C/c1ccc2c(c1)OCO2)N1CCCCC1
>57	i	CC1CCN(Cc2c(C#N)c3ccccc3n2C)CC1
2.87*	i	COc1ccccc1N1CCN(S(=O)(=O)c2c(C)ccc3nsnc23)CC1
>11.4	nt	CSc1nc2sc3c(c2c2nnnn12)CC(C)(C)OC3
>57	i	O=C(O)c1n[nH]c2c1CCCCC2
nt	i	Nc1nc2n(n1)C(c1cccc(Br)c1)CC(c1ccccc1)N2 (stereo not drawn)
>57	i	CCOC(=O)N1CCC(N2C(=O)c3ccc(C(=O)O)cc3C2=O)CC1
>57	i	O=C(O)C1C(c2ccccc2)C(C(=O)OCCCO)C1c1ccccc1 (stereo not drawn)
i	i	COc1ccc(-c2nn3c(-c4ccco4)nnc3s2)cc1OC
>57	i	CCCCCCOC(=O)C(C#N)c1nc2ccccc2nc1N1CCN(C)CC1 (stereo not drawn)
nt	i	COC(=O)[C@@]1(Cc2ccc(F)cc2)[C@H]2c3cc(C(=O)N4CCCC4)n(Cc4ccc(OC(F)(F)F)cc4)c3C[C@H]2CN1C(=O)c1ccccc1
>57	i	CS(=O)(=O)N(CC(=O)NCC1CCCO1)c1cc(Cl)cc(Cl)c1 (stereo not drawn)
nt	i	CS(=O)(=O)c1ccc(N)cc1
>57	i	CCN(CC)C(=O)CSc1nnc2sc3ccccc3n12
>57	i	CCOC(=O)c1ccc(NC(=O)N2CCN(Cc3cccc(F)c3)CC2)cc1
>25.6	nt	Cc1nn(CC(N)=O)c(=O)c2ccccc12
>57	i	COc1ccccc1NC(=O)CN1C(=O)C(C)Oc2ccccc21 (stereo not drawn)
nt	i	COc1ccc(-c2cn3cccnc3n2)cc1NC(=O)C1CC1
>57	i	COc1ccc(CCNS(=O)(=O)c2ccc(C(=O)NCc3ccco3)cc2)cc1OC
>57	i	COc1ccccc1N1CCN(c2nc(-c3ccccc3)cc(C(F)(F)F)n2)CC1
nt	i	c1ccc2c(-c3nc(C4CCCCC4)no3)cc(-c3ccncc3)nc2c1
nt	i	Cc1nc(N(C)C)c2sc(=S)n(C)c2n1
>57	i	CS(=O)(=O)c1ccc2nc(NC(=O)Oc3ccccc3)sc2c1
nt	i	Cn1c(=O)cnc2cnc(Oc3ccccc3)nc21
>57	i	COc1ccc(-c2nc(CS(=O)(=O)CC(=O)NCCc3cc(OC)ccc3OC)c(C)o2)cc1
nt	i	Cc1ccccc1-c1cncnc1N1CCN(C)CC1
nt	i	CSC(N)=NCCC[C@@H](N)C(=O)O
nt	i	O=C1CS/C(=N\C(=O)N2c3ccccc3Sc3ccccc32)N1
>57	i	CN(C)/C=C1\C(=O)c2ccc(N(C)C)nc2CC1c1ccccc1 (stereo not drawn)
>57	i	Cc1onc(-c2ccccc2Cl)c1C(=O)Nc1cccc(-c2nc3ncccn3c2C)c1
>57	i	CCOC(=O)c1c(C)[nH]c(C)c1C(=O)COC(=O)C1CCCN1S(=O)(=O)c1ccccc1F (stereo not drawn)
>57	i	O=C1CCCN1C(=O)CCC(=O)N1CCCC1=O
>57	i	CCc1c(C)nc2[nH]nc(-c3ccccc3C)n2c1=O
nt	i	CCC12CC3CC(C1)CC(C(=O)O)(C3)C2
>57	i	Cn1c(SCc2ccccc2F)nnc1-c1cnccn1
>57	i	CC(=O)Nc1cccc(Oc2cc(C#N)c(C#N)cc2N2CCOCC2)c1
nt	i	COc1ccccc1-c1cncnc1Nc1ccccc1
>57	i	N=c1c(C(=O)NCc2ccc(F)cc2)cc2c(=O)n3ccccc3nc2n1Cc1ccco1
>57	i	CCN(CCNC(=O)C1CCCN(Cc2nc(-c3ccc(OC)cc3)oc2C)C1)c1ccccc1 (stereo not drawn)
>57	i	Cc1sc2nc(CN3CCN(S(=O)(=O)c4cccc5nonc45)CC3)[nH]c(=O)c2c1C
>57	i	CC(C)c1ccc2oc(=O)cc(CN3CCN(c4ccc(F)cc4)CC3)c2c1
>57	i	O=C(CCCn1c(SCC(=O)NCC2CCCO2)nc2ccccc2c1=O)NCC1CCCO1 (stereo not drawn)
nt	i	COc1ccc(OCCSc2ncnc3nc[nH]c23)cc1
>57	i	COc1ccc(S(=O)(=O)N(CC(=O)NC2CC2)c2ccc(C)cc2)cc1OC
>25.6	nt	C=CCSc1nc(C)c(CC=C)c(=O)[nH]1
>57	i	CCCCn1c(N2CCC(Cc3ccccc3)CC2)nc2c1c(=O)[nH]c(=O)n2C

# (list continues)
Bst PK mod	TsaE inh	mol
>57	i	Cc1ccccc1CN1CCN(CC(=O)NCCCN2CCN(c3ccc(F)cc3)CC2)C1=O
>57	i	COc1ccccc1N1CCN(C(=O)COc2ccc(Cl)cc2)CC1
nt	i	CCOC(=O)N1CCN(C(=O)c2ccc3c(SCC(=O)O)c4c(nc3c2)CCCC4)CC1
>57	i	CC(=O)OCCOc1nc(N(C)C)nc(N(C)C)n1
nt	i	CCOCCCNC(=O)c1cccs1
>57	i	COC(=O)Cc1c(C)c2ccc(OCC(C)=O)c(C)c2oc1=O
nt	i	Clc1ccc2c(NCCNc3ccnc4cc(Cl)ccc34)ccnc2c1
>57	i	CCOc1ccccc1N1CCN(c2nc(N)c(C#N)c(CC#N)c2C#N)CC1
>25.6	nt	OC(CCN1CCCC1)(c1ccccc1)C1CCCCC1 (stereo not drawn)
>57	i	O=C(Cn1nnc(-c2ccccc2)n1)NCc1ccccc1
>57	i	COc1ccc(-c2cc(OC)c3c(C)oc(C)c3c(=O)c2)cc1OC
nt	i	COC(=O)c1[nH]c2ccc(F)cc2c1NC(=O)C1=COCCO1

# Among those listed so far, these have bromine:
Bst PK mod	TsaE inh	mol
>57	i	COc1ccc(Br)cc1CNC(=O)C1CCCN(c2nc3ccccc3o2)C1 (stereo not drawn)
nt	i	COc1c(Br)cc(Br)cc1C(=O)O
nt	i	Nc1nc2n(n1)C(c1cccc(Br)c1)CC(c1ccccc1)N2 (stereo not drawn)

# This is a subset; the hit share may differ from the screen's.
